Bioassay records (PubChem)
TsaE inh = qHTS Assay for Inhibitors of YjeE; tRNA threonylcarbamoyladenosine biosynthesis protein TsaE (Escherichia coli (strain …; purified YjeE, fluorescence polarisation of a bound ADP probe; Potency, µM; hit rate 0.05% among 71,000; AID 605, 2007; active = well fitted falling curve; inconclusive = weaker or top-dose-only fall, or a rising curve; inactive = flat or poorly fitted curve;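 note: top concentration of the series not given in the record; excess ADP was the control for the full effect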
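Fluorescence polarization of a BODIPY Texas Red–ADP probe (2 uM) bound to purified YjeE (10 uM) was read after 15 min room-temperature incubation with compounds. Loss of polarization marks inhibitors; ADP serves as titrated control.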
PK Bst = Pyruvate Kinase | hit rate 1.2% among 51,000 | AID 361, 2006 | partly purified Bacillus stearothermophilus pyruvate kinase, luminescence ATP production; ribose 5-phosphate activator present at AC10 | Potency, µM; in the data active means potency below about 11 µM; inconclusive means mostly about 12 µM to 25 µM; inactive means weaker than that;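 the screen sought inhibitors and activators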;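 note: potency is the fitted concentration of half-maximal effect; scaled between full activation by ribose 5 phosphate and full inhibition by luteolin; about four in five hits inhibit and the cells do not say which; series up to 57 µM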
* marks the source's active call; other numbers are inactive results; i = inactive; . = not tested or not shown. Only part of the results is shown, so the mix of outcomes need not match the whole.

SMILES	TsaE inh	PK Bst
CC(C)OC(=O)c1cccc(C(=O)OCc2ccco2)n1	i	>57
COCCN(CC(=O)Nc1ccc(F)cc1)S(=O)(=O)c1ccc(S(=O)(=O)N2CCCC2)cc1	i	>57
CN(C)/N=N/c1nc[nH]c1C(N)=O	i	.
CCOC(=O)C(C(=O)OCC)C1N=C(N)N=C2Oc3ccccc3N21 (configuration not stated)	i	>57
CCOc1ccccc1C(=O)NC(C(=O)Nc1ccccc1N1CCOCC1)C(C)C (configuration not stated)	i	>57
CCOC(=O)COc1cccc2c(=O)n(CC(=O)N3CCN(C(=O)OCC)CC3)ccc12	i	.
O=c1c(C/C=C/c2ccccc2)c(O)nc2n1CCCS2	i	>57
O=c1c(-c2cc(F)cc(F)c2)nc2cncnc2n1Cc1ccccc1	i	.
N[C@H](Cc1ccc(F)cc1)C(=O)O	i	.
COc1ccc2[nH]c3c(=O)n(CCCCC(=O)N4CCC(C(N)=O)CC4)c(=S)[nH]c3c2c1	i	.
CSc1ncc(Cl)c(C(=O)Nc2ccc(S(=O)(=O)N3CCOCC3)cc2)n1	i	>57
CCc1nnc2n1N=C(c1ccc(-c3ccc(Cl)cc3Cl)o1)CS2	i	>57
Cc1cccc(OCc2nnc(SCC(=O)N(C(C)C)C(C)C)n2Cc2ccco2)c1C	i	>57
CCOC(=O)c1sc(NC(=O)CSc2nnnn2-c2ccc(C)c(C)c2)nc1C	i	>57
COC(=O)c1ccc2c(c1)N(Cc1ccccc1F)C(=O)c1ccccc1S2=O (configuration not stated)	i	.
O=C(O)c1cc(-c2cccnc2)nn1-c1ccccn1	i	>57
CCc1ccc(N2CC(C(=O)NC3=NCCS3)CC2=O)cc1 (configuration not stated)	i	>57
Cn1c(SCC(=O)c2ccc(F)cc2)nnc1-c1ccccc1N	i	>57
CCOC(=O)Nc1ccc2c(CN3CCN(S(=O)(=O)c4ccccc4)CC3)cc(=O)oc2c1	i	>57
CCCNC(=O)CSc1nnc(-c2ccco2)n1C	i	>57
CCOCCCNC(=O)C1CCN(c2cc(C)nc3c(-c4ccc(OC)c(OC)c4)c(C)nn23)CC1	i	>57
CCCS(=O)(=O)N1CCCC(C(=O)N2CCOCC2)C1 (configuration not stated)	i	>57
O=C1CC(N2CCN(C3CC(=O)N(CCc4ccccc4)C3=O)CC2)C(=O)N1CCc1ccccc1 (configuration not stated)	i	.
COc1ccc(-n2c(=O)c(-c3cccs3)nc3cnc(N4CCN(C)CC4)nc32)cc1	i	.
CC(=O)c1c(N)[nH]c(-c2ccccc2)nc1=S	i	>57

Next part, starting with the last 5 of the part before.
SMILES	TsaE inh	PK Bst
CCOCCCNC(=O)C1CCN(c2cc(C)nc3c(-c4ccc(OC)c(OC)c4)c(C)nn23)CC1	i	>57
CCCS(=O)(=O)N1CCCC(C(=O)N2CCOCC2)C1 (configuration not stated)	i	>57
O=C1CC(N2CCN(C3CC(=O)N(CCc4ccccc4)C3=O)CC2)C(=O)N1CCc1ccccc1 (configuration not stated)	i	.
COc1ccc(-n2c(=O)c(-c3cccs3)nc3cnc(N4CCN(C)CC4)nc32)cc1	i	.
CC(=O)c1c(N)[nH]c(-c2ccccc2)nc1=S	i	>57
CCOc1ccc2[nH]c(S(=O)(=O)CC)nc2c1Cl	i	>57
Cc1nn2c(-c3ccccc3)nnc2c2ccccc12	i	i
CCOC(=O)CSc1nnc(CSc2nc3sc4c(c3c(=O)[nH]2)CCC4)n1C	i	.
CC(C)CCN1CC(C(=O)NC(C)C)CC1=O (configuration not stated)	i	>57
CCCS(=O)(=O)N1CCCC(C(=O)NCc2ccco2)C1 (configuration not stated)	i	>57
COC(=O)C1=CN(C(C)C)C=C(C(=O)OC)C1c1cccc(OC)c1	i	.
N#CCCCN1C(=O)C(O)(CC(=O)c2ccc3c(c2)OCCO3)c2ccccc21 (configuration not stated)	i	>57
CN(C)CCn1c(CO)nc2c1c(=O)n(C)c(=O)n2C	i	.
CCS(=O)(=O)N1CCC(C(=O)NCc2cccnc2)CC1	i	>57
CC(=O)c1cccc(S(=O)(=O)N(Cc2cc3cc4c(cc3[nH]c2=O)OCCO4)CC2CCCO2)c1 (configuration not stated)	i	>57
CCOC(=O)N1CC=C2C(C#N)=C(N)C(C#N)(C#N)[C@H](c3ccc(OCC)c(OCC)c3)[C@H]2C1	i	>57
Cc1cc(Oc2ccccc2)nc(SCC(N)=O)n1	i	>57
O=C(Nc1nccs1)c1cc(S(=O)(=O)N2CCCCC2)ccc1Cl	i	.
N[C@@H](Cc1c[nH]c2ccccc12)C(=O)NCC(=O)O	i	.
CCn1c(SCc2cccc(C(F)(F)F)c2)nnc1-c1ccco1	i	>57
Cc1nc(Cl)sc1C(=O)O	i	>57
CCC(C)NC(=O)c1cc(-c2ccccc2O)on1 (configuration not stated)	i	.
Cc1c(C(=O)O)c(=S)sn1CCOc1ccccc1	.	>26
CN=C(NC)SC1CC(=O)N(c2ccccc2)C1=O (configuration not stated)	i	.
CCOC(=O)c1ccc(NC(=O)Cn2cccc2)cc1	i	>57
CCCCOc1ncnc2c1[nH]c1ccc(F)cc12	i	.
COc1ccc2nc3oc(C(=O)N4CCN(c5ccccc5F)CC4)cc3cc2c1	i	>57
CCOC(=O)C(NCc1ccccn1)(NC(=O)c1cccnc1)C(F)(F)F (configuration not stated)	i	>57
CC1(C)Cc2c(sc3nc4n(c(=N)c23)CCCCC4)CO1	.	>26
O=C(Nc1cccc(C(=O)Nc2ccc(S(=O)(=O)O)c3cc(S(=O)(=O)O)cc(S(=O)(=O)O)c23)c1)Nc1cccc(C(=O)Nc2ccc(S(=O)(=O)O)c3cc(S(=O)(=O)O)cc(S(=O)(=O)O)c23)c1	i	.

Next results follow.
SMILES	TsaE inh	PK Bst
Cc1ccc2c3c1C1(C(=O)N3C(C)(C)CC2C)C(C#N)=C(N)Oc2cc(O)ccc21 (configuration not stated)	i	i
O=C(CSc1n[nH]c(-c2ccccc2O)n1)N1CCCc2ccccc21	i	>57
O=C(NCc1ccco1)C(c1ccccc1F)N(Cc1cccnc1)C(=O)Cn1nnc2ccccc21 (configuration not stated)	i	>57
Cc1ccc(C2CC(=O)Nc3cc4c(cc32)OCCO4)s1 (configuration not stated)	i	>57
O=C(COC(=O)C1(c2ccc(F)cc2)CCCC1)N1CCN(C(=O)c2ccco2)CC1	i	>57
COCCNC(=O)CSc1nc2ccccc2c(=O)n1CC1CCCO1 (configuration not stated)	i	>57
COc1ccc(C(=O)N2CCC3(CC2)CN(c2ccccn2)C3)cc1	i	.
C=CCN1CCc2c(cc(O)c(O)c2Br)[C@H](c2ccccc2)C1	i	.
O=c1[nH][nH]c(=O)c2cc(N3CCCC3)ccc12	i	i
CCN1C(=O)CC(N2CCC(Nc3ccc(OC)cc3)CC2)C1=O (configuration not stated)	i	>57
COc1ccc2[nH]cc(CCNc3ncnc4ccc(-c5ccc6c(c5)OCO6)cc34)c2c1	i	.
C=CCOC(=O)C(C#N)c1nc2ccccc2nc1N1CCC(C(=O)OCC)CC1 (configuration not stated)	.	i
COc1ccc(NC(=O)N2CCn3c2nc2ccccc23)cc1	i	5.6*
O=[N+]([O-])c1ccc(S(=O)(=O)Cc2ccccc2)c2nonc12	i	.
Cn1c(=O)[nH]c(=O)c2c1nc(N1CCCC1)n2CC(O)COc1ccccc1 (configuration not stated)	i	.
Cc1nn(CC(=O)Nc2ccc(C(=O)N3CCCCC3)cc2)c(=O)c2ccccc12	i	>57
COc1ccccc1NC(=O)CSc1nnc(COc2ccc(Cl)cc2)n1Cc1ccco1	i	>57
O=C(CSc1c[nH]c2ccccc12)N1CCOCC1	i	>57
O=C(c1ccco1)N1CCN(C(=O)C(Cc2ccccc2)NS(=O)(=O)c2cccs2)CC1 (configuration not stated)	i	>57
COC(=O)c1cccc(NC(=O)NC2CCCN2S(=O)(=O)c2ccc(Cl)cc2)c1 (configuration not stated)	i	9.5*
Nc1ccccc1SCc1csc(-c2ccc(Cl)cc2)n1	i	.
COc1ccc(OC)c(NC(=O)C2CC(=O)N(c3ccccc3)C2)c1 (configuration not stated)	i	>57
CC1(C)CC(NC(=O)c2ccccc2Cl)CC(C)(C)N1	i	>57
COc1cc2c3c(c1)C1(C(=O)N3C(C)(C)C=C2C)C(C#N)=C(N)Oc2cc(C)oc(=O)c21 (configuration not stated)	i	>57
Cc1ccc(C(=O)CNc2nc3c(c(=O)[nH]c(=O)n3C)n2Cc2ccccc2)cc1	i	>57

Not a retest: entries from further up.
SMILES	TsaE inh	PK Bst
CC(C)OC(=O)c1cccc(C(=O)OCc2ccco2)n1	i	>57
COCCN(CC(=O)Nc1ccc(F)cc1)S(=O)(=O)c1ccc(S(=O)(=O)N2CCCC2)cc1	i	>57
CN(C)/N=N/c1nc[nH]c1C(N)=O	i	.
CCOC(=O)C(C(=O)OCC)C1N=C(N)N=C2Oc3ccccc3N21 (configuration not stated)	i	>57
CCOc1ccccc1C(=O)NC(C(=O)Nc1ccccc1N1CCOCC1)C(C)C (configuration not stated)	i	>57
CCOC(=O)COc1cccc2c(=O)n(CC(=O)N3CCN(C(=O)OCC)CC3)ccc12	i	.

(list continues)
SMILES	TsaE inh	PK Bst
CC(CNC(=O)c1ccc(Br)o1)NC(=O)c1ccc(Br)o1 (configuration not stated)	i	.
N#C/C(C(=O)NCc1ccccc1)=C1\SC(CCO)C(=O)N1c1ccccc1 (configuration not stated)	.	>26
CC(CN1CCOCC1)OC(=O)COc1ccc(F)cc1 (configuration not stated)	i	>57
COCCN1C=C(C(=O)OC)C(c2cc3c(cc2Br)OCO3)C(C(=O)OC)=C1	i	.
CC(C)NC(=O)[C@@H]1C[C@@]1(C)[C@@H](NC(=O)OCc1ccccc1)c1ccccc1	i	.
CCOC(=O)C1=C(C)NC(=O)NC1c1c(OCC(=O)N2CCCCC2)ccc2ccccc12 (configuration not stated)	i	>57
CCOC(=O)N1CCN(C(=O)CCC(=O)N2CCOc3ccc(C)cc32)CC1	i	>57
C=CCc1ccccc1OCC(O)CNC (configuration not stated)	i	>57
Cc1ccc(S(=O)(=O)N(C)Cc2ccc(-c3nnco3)cc2)cc1	i	>57
CCCCC(CC)C(=O)NCCCN1CCN(CCCNC(=O)C(CC)CCCC)CC1 (configuration not stated)	i	.
CC1(C)C2CCC1(C)C(OC(=O)CSc1nc(N)cc(=O)[nH]1)C2 (configuration not stated)	i	.
COc1cc(OC)cc(C(=O)Nc2ccccc2N2CCOCC2)c1	i	>57
CCC(C)(C)n1nnnc1CN(Cc1ccc(Cl)cc1)Cc1ccco1	i	>57
c1ccc(-c2nnc3n2NC(c2ccc4c(c2)OCO4)S3)cc1 (configuration not stated)	i	>57
Cn1c(SCc2c(F)cccc2Cl)nnc1-c1cnccn1	i	>57
O=C(c1cc2nc(-c3ccccc3)cc(-c3ccccc3)n2n1)N1CCN(C(=O)c2ccco2)CC1	i	>57
O=C(CCn1c(=O)oc2ccccc21)N(Cc1ccccc1)c1ccccn1	i	>57
CCOC(=O)c1oc2ccccc2c1NC(=O)c1cccs1	i	>57
CC(=O)N1CCc2cc(S(=O)(=O)Nc3ccccc3N3CCN(C)CC3)ccc21	i	.
CC(CSc1nc2ccccc2s1)Cn1c(N2CCCC2)nc2c1c(=O)[nH]c(=O)n2C (configuration not stated)	i	>57
O=C(Cn1cccc1C(=O)c1ccccc1)NCc1ccccn1	i	>57
O=C(CCn1c(=S)oc2ccccc21)Nc1ccc2c(c1)OCCO2	i	>57
CCN1CCCC1CNC(=O)CCNC(=O)c1cc(OC)c(OC)c(OC)c1 (configuration not stated)	i	>57
COc1cc(/C=N/n2cnnc2)ccc1OCC(=O)N1CCOCC1	i	.
COC(=O)C[C@](O)(CCCC(C)(C)O)C(=O)O[C@@H]1C(OC)=C[C@]23CCCN2CCc2cc4c(cc2[C@H]13)OCO4	i	.

Taken from above:
PK Bst with `O=C(Cn1cccc1C(=O)c1ccccc1)NCc1ccccn1` stands at >57
PK Bst with `CC(C)CCN1CC(C(=O)NC(C)C)CC1=O` (configuration not stated) stands at >57
PK Bst with `O=C(COC(=O)C1(c2ccc(F)cc2)CCCC1)N1CCN(C(=O)c2ccco2)CC1` stands at >57
PK Bst with `Cc1ccc(C(=O)CNc2nc3c(c(=O)[nH]c(=O)n3C)n2Cc2ccccc2)cc1` stands at >57
PK Bst with `COCCN(CC(=O)Nc1ccc(F)cc1)S(=O)(=O)c1ccc(S(=O)(=O)N2CCCC2)cc1` stands at >57

Further entries.
SMILES	TsaE inh	PK Bst
CC1CC(c2ccccc2)n2nc(NC(=O)CCc3ccccc3)nc2N1 (configuration not stated)	i	>57
CCN1CCc2nc(NC(=O)c3ccc4c(c3)OCCO4)sc2C1	i	.
Cc1cc(C)n2nc(SCc3ncc(-c4ccccc4)o3)nc2n1	i	>57
O=C(OCC#CCSc1nnc(-c2ccccc2)o1)c1cccs1	.	>26
Cc1nnc2sc(-c3ccc(-c4ccc(Cl)c(C(F)(F)F)c4)o3)nn12	i	>57
CCOC(=O)c1cnc(Nc2nc3ccccc3o2)nc1CN1CCN(c2ccccc2)CC1	i	>57
COc1ccc(Br)cc1CNC(=O)C1CCC(=O)N1C(C)C (configuration not stated)	i	.
COc1ccc(-c2cc(C(F)(F)F)nc(NCc3ccco3)n2)cc1OC	i	>57
CCOc1ccc(-c2nnc(SCC(=O)N3CCOCC3)o2)cc1	i	.
O=C(O)[C@H]1CC=CC[C@@H]1C(=O)Nc1cccc(O)c1	i	.
O=C(NC1CCCCC1)N1CCCCCC1	i	.
COc1ccc(C2C3=C(CCCC3=O)Nc3nc(C(F)(F)F)nn32)c(OC)c1OC (configuration not stated)	i	>57
Cn1cccc1Cc1nnc(SCC(=O)NC2CCCC2)n1-c1ccc(F)cc1	i	.
O=C(CN(Cc1ccco1)C(=O)CNS(=O)(=O)c1ccc(F)cc1)NCc1ccc(F)cc1	i	>57
CCc1cccc(CC)c1N(COC)C(=O)Cn1ccccc1=N	i	>57
